Insulin prom inh – TRM-6 insulin promoter activity inhibition; TRM-6 cells (human fetal islet line), insulin promoter-eGFP reporter, imaging; reporter expression induced with tamoxifen; inhibition, % at 2 µM; 130,000 compounds, 0.9% hits;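 active = inhibition above the mean plus 3 SD, with well images judged a real hit on visual review, cut at about 60% in these data, passing the limit was not always enough; inconclusive = inhibition over the cutoff but images rejected on review; inactive = inhibition not above the cutoff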
GALR2 ag – activates the human galanin receptor 2; O43603; GALR2-expressing cells, agonist activation read-out; activation, %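 (tested at 5 µM)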; 140,000 compounds, 0.48% hits;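 active = above mean plus 3 SD of all compounds, about 5% in these data, not always enough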;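 note: 0% = vehicle buffer wells and 100% = reference agonist at full effect; tested in CHO reporter cells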
Target sequence (O43603 whole entry, looked up): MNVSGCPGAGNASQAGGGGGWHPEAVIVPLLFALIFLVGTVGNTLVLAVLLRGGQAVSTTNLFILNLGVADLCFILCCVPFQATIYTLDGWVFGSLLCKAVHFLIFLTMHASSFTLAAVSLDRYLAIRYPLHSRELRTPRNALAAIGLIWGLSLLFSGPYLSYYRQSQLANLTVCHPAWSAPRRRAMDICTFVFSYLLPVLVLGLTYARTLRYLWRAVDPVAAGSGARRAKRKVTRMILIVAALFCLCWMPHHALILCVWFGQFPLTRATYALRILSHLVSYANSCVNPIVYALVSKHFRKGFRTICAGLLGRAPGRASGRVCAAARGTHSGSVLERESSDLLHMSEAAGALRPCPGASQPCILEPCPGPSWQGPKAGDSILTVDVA
HSV replic up – HSV replication enhancement | HSV replication augmentation in cells, fold increase | AID 1956 | 220,000 compounds, 0.005% hits | maximum fold increase;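 active = peak rise of 1.5-fold or more in the series; inconclusive = self-fluorescent or not available for retest; tested in PC3 cells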;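 note: first round at 10 µM; read as green reporter fluorescence; hits show the peak of a series up to 25 µM; 1 = signal of infected wells without compound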
RGS16-Gao HTS – modulates binding between human RGS16 and Galphao; bead-based flow cytometry RGS16-Galphao binding, fluorescence; actives lie on both sides; AID 1441; O15492+P09471; 220,000 compounds, 0.38% hits; binding response (% of control), % at 10 µM;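 active = below 25% or above 175%, edge rows of some plates excepted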;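 note: Galphao activated by GDP with aluminum fluoride before binding; 100% = wells without compound and 0% = beads without RGS; some results beyond the cut were filed as inactive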
Target sequence (O15492 whole entry, looked up): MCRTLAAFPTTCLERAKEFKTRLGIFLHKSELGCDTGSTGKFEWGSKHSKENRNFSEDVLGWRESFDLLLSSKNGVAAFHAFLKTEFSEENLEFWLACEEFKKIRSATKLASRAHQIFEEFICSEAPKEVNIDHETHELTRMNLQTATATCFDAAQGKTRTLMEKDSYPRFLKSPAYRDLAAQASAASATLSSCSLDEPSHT
Target sequence (P09471 whole entry, looked up): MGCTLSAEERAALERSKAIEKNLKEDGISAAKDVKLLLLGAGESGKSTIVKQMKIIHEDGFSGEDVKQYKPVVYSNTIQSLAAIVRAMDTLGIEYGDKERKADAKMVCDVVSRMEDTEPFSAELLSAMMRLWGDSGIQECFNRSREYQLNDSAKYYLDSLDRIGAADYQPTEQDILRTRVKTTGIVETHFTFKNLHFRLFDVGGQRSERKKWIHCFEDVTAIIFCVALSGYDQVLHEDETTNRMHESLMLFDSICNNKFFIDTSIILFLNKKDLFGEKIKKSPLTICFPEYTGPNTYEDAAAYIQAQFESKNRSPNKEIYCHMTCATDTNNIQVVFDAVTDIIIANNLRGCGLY
PKD1 inh – blocks activity of human protein kinase D1. PKD1 kinase fluorescence polarization assay. inhibition, %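 (about 10 µM by stock and volumes)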. 200,000 compounds, 0.056% hits;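 active = inhibition of 50% or more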;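 note: controls were vehicle for no effect and a reference inhibitor for full effect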
Insulin prom inh cell count – also measured in Insulin prom inh; calls as there; normalized cell count, %; measured here: cell count, toxicity; reference of the scale not given here;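 cells exposed to compound for 48 h; stained nuclei by imaging scaled within each plate; lower means fewer cells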
HSV replic up primary fold – also measured in HSV replic up; calls as there; fold increase; compound at 10 µM; measured here: primary screen fold increase 10 uM; tested in PC3 cells;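 GFP signal in the first replicate; 1 = infected wells without compound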
* hit, by the source's call; i = inactive; ? = inconclusive; . = no result given. Compounds were not picked by outcome. About 1.3% of those tested had a hit in this group.

SMILES	Insulin prom inh	Insulin prom inh cell count	GALR2 ag	HSV replic up	HSV replic up primary fold	RGS16-Gao HTS	PKD1 inh
Cc1cc(/C=N\NC(=O)CC(=O)NC2CCCCC2)c(C)n1-c1cccc(Cl)c1Cl	33	63	-0.3	i	1.2	80	12
NC(=O)C1CC(=O)N(c2ccc(OCc3ccccc3Cl)cc2)C1 (stereo unspecified)	-55	69	.	i	0.95	101	-6
CC1=CCC2C(=O)N(c3ccccc3OC(=O)c3ccccc3F)C(=O)C2C1 (stereo unspecified)	-84	91	-0.1	i	1	102	-9
CCCCCC(=O)OC(CN1CCCCC1)CN1CCCC1=O (stereo unspecified)	-19	122	-2.3	i	1.1	90	-11
Cc1ccc(S(=O)(=O)NCC(=O)NCC(=O)OC(C(=O)NC(N)=O)C(C)C)cc1C (stereo unspecified)	.	.	.	i	0.91	97	.
CN(C)Cc1c(O)ccc2oc(Cc3ccccc3)cc12	17	115	0.4	i	0.92	102	-3
O=C(c1cccc(S(=O)(=O)N2CCCC2)c1)N1CCN(c2ncccn2)CC1	-20	85	-0.5	i	0.99	162	9
Cc1cc(Cl)c(S(=O)(=O)N2CCN(c3ccccc3)CC2)cc1OCC(N)=O	33	100	-1.4	i	1	105	5
O=C(CN1CCCC1)Nc1ccccc1Cl	4	70	-1.5	i	0.98	102	3
CC(O)CNc1cnccn1 (stereo unspecified)	.	.	.	i	1	110	1
COc1ccc(CNC(=O)c2ccc[nH]2)cc1Cl	26	100	.	i	0.89	99	-3
CCOC(=O)NNC(=S)Nc1c(C)n(C)n(-c2ccccc2)c1=O	.	.	.	i	1	100	.
O=C(CSc1nc(COc2ccccc2)nc2ccccc12)NC1CCCC1	-62	108	.	i	0.92	105	-5
NC(=O)c1ccc(-c2csnn2)cc1	.	.	.	i	0.95	96	.
COc1cccc(NC2=Nc3cccc4cccc2c34)c1	.	.	-1.0	?	.	105	5
C=CCNC(=O)/C(C#N)=C/c1ccc(OS(=O)(=O)c2ccc(C)cc2)c(OC)c1	-43	85	-0.4	i	0.9	87	8
CCN(CC)Cc1ccccc1Sc1ccccc1	22	43	-1.1	i	0.88	144	-6
CCOc1cc(NC(=O)c2cccs2)c(OCC)cc1NC(=O)CCC(=O)NCc1ccccn1	.	.	.	i	0.93	98	.
CC1(C)CC(=O)C=C(N=CC2=C(O)CC(C)(C)CC2=O)C1	20	106	-0.7	i	0.95	99	-7
Cc1ccc(S(=O)(=O)Nc2ccncc2)c(C)c1N(C)S(=O)(=O)c1ccc(Cl)cc1	33	101	-1.2	i	0.99	109	-9
COc1cccc(OC2OC3COC(C)(C)OC3C(O)C2NC(C)=O)c1 (stereo unspecified)	.	.	.	i	0.99	115	1
CC1CCN(S(=O)(=O)c2ccc(C(=O)NCc3cccnc3)cc2)CC1	44	67	.	i	1.1	101	4
CN(C)c1cccc(NC2=CC(=[N+]3CCOCC3)CC(C)(C)C2)c1	-25	79	-0.6	i	1.1	96	6
C=CCNC(=O)/C(C#N)=C/c1ccccc1[N+](=O)[O-]	.	.	-0.9	i	1.2	99	-11
Cn1c(=O)n(C)c2cc(NC(=O)COc3ccc(Cl)cc3)ccc21	-11	67	.	i	0.97	100	-10
CCCCCC(=O)Nc1cccc(-c2nc3ncccc3o2)c1	.	.	-1.5	i	1.2	97	8
CCCc1nc2scc(-c3ccc(C)cc3)c2c(=O)n1N	81*	78*	-1.0	i	1.2	107	-6
O=C(CN1C(=O)c2ccccc2C1=O)OC(C(=O)c1ccc(Cl)cc1)c1ccccc1 (stereo unspecified)	6	134	-1.8	i	1.1	100	-2
Cn1c(CNC(=O)OC(C)(C)C)n[nH]c1=S	-25	100	.	i	1	95	2
Cc1ccc(C(=O)NC(=S)NCC2CCCO2)cc1Br (stereo unspecified)	0	147	1.5	i	0.92	109	-4
COc1cccc(C2CC(c3cccc(Br)c3)n3nc(N)nc3N2)c1 (stereo unspecified)	.	.	0.1	i	1.1	103	-2
O=C(Nc1ccc(CN2CCOCC2)cc1)c1ccc(-c2ccc(Cl)cc2Cl)o1	.	.	.	i	0.8	104	-4
COc1ccc2[nH]cc(CCN3C(=O)CCC3=O)c2c1	4	98	-0.1	i	1	105	-1
CCOc1ccc(OCC)c(NC(=O)C2CCCN(c3ncccn3)C2)c1 (stereo unspecified)	-17	82	-3.2	i	0.89	105	-7
Cc1cc(Nc2ncc(Cl)cc2Cl)n[nH]1	36	87	-1.5	i	0.96	102	-14
COc1ccc(NC(=S)N(CCO)Cc2cc3c(C)cc(C)cc3[nH]c2=O)cc1	.	.	.	i	0.93	98	.
O=[N+]([O-])c1ccc(N2CCN(CCOCCO)CC2)c([N+](=O)[O-])c1	.	.	.	i	0.89	104	3
CCC1=NC(c2ccccc2Cl)N(O)C1(C)C (stereo unspecified)	48	100	-1.1	i	0.89	88	2
CCOC(=O)C1(Cc2cccc(OC)c2)CCN(Cc2ccc(OC)c(O)c2)CC1	.	.	.	i	0.98	101	-3
O=C1c2ccsc2SCCN1Cc1ccc(Cl)cc1Cl	-66	91	-0.5	i	0.99	94	-12

Molecules from the list above with an NH in an aromatic ring (5):
SMILES	Insulin prom inh	Insulin prom inh cell count	GALR2 ag	HSV replic up	HSV replic up primary fold	RGS16-Gao HTS	PKD1 inh
COc1ccc(CNC(=O)c2ccc[nH]2)cc1Cl	26	100	.	i	0.89	99	-3
Cn1c(CNC(=O)OC(C)(C)C)n[nH]c1=S	-25	100	.	i	1	95	2
COc1ccc2[nH]cc(CCN3C(=O)CCC3=O)c2c1	4	98	-0.1	i	1	105	-1
Cc1cc(Nc2ncc(Cl)cc2Cl)n[nH]1	36	87	-1.5	i	0.96	102	-14
COc1ccc(NC(=S)N(CCO)Cc2cc3c(C)cc(C)cc3[nH]c2=O)cc1	.	.	.	i	0.93	98	.

Further results:
SMILES	Insulin prom inh	Insulin prom inh cell count	GALR2 ag	HSV replic up	HSV replic up primary fold	RGS16-Gao HTS	PKD1 inh
O=C(COC(=O)c1cc([N+](=O)[O-])ccc1NCc1ccccc1)NC1CCCc2ccccc21 (stereo unspecified)	3	46	-2.1	i	1.1	102	1
CCNc1nc(=S)nc(NCc2ccccc2)[nH]1	-45	106	.	i	0.94	103	-6
Cc1noc(C)c1COc1ccc(C(=O)OC(C)C(=O)Nc2ccc(S(=O)(=O)N3CCOCC3)cc2)cc1 (stereo unspecified)	-52	52	-0.8	i	1	103	3
Cc1cc(C)nc(NC(=O)c2c(-c3ccccc3Cl)noc2C)n1	-21	171	-2.2	i	1.2	80	-7
O=C(Nc1nnc(-c2cccs2)o1)c1ccco1	.	.	-1.3	i	0.75	107	1
CC(=O)c1ccc(NC(=O)c2ccc(COc3ccccc3[N+](=O)[O-])o2)cc1	-23	125	-0.4	i	1	95	2
COc1ccccc1OCC(=O)NNC(=S)NC(=O)c1ccco1	-13	100	-3.5	i	0.87	101	-3
COc1ccc2oc(C(F)(F)C(F)(F)F)cc(=O)c2c1	-11	92	-0.1	.	.	111	-3
CCc1ccc2[nH]c(=O)c(C(c3nnnn3CCOC)N3CCN(c4ccccc4F)CC3)cc2c1 (stereo unspecified)	.	.	-3.8	i	0.95	105	-7
COC(=O)c1cc(C(=O)OC)cc(N2C(=O)CC(NNC(=O)c3ccccc3Cl)C2=O)c1 (stereo unspecified)	-17	127	0.1	i	0.87	106	2
CC(C)c1cc(C(=O)N/N=C/c2ccco2)n[nH]1	-14	107	-1.4	i	0.9	103	-13
O=C(CN(Cc1ccc2c(c1)OCO2)C(=O)c1cnsn1)NC1CCCC1	-8	95	-2.4	i	0.83	103	-2
O=C(CCC(=O)Nc1nnc(C2CCCCC2)s1)NCc1cccs1	.	.	-0.2	i	1	100	7
O=C(N/N=C/c1ccccc1OC(=O)N1CCOCC1)c1cccs1	-31	65	.	i	1.1	103	-3
O=[N+]([O-])c1ccc(N2CCCCC2)c(Cl)c1N1CCCCC1	-3	118	-2.5	i	1	102	-5
Cc1cc(C)c(S(=O)(=O)NCC(=O)NCc2ccccn2)c(C)c1	-41	80	.	i	1.1	104	-1
CCOC(=O)/C=C/C(=O)Nc1ccc(Oc2ccccc2)cc1	.	.	.	i	0.87	99	-1
COc1ccc(OC)c(NC(=O)COC(=O)CCCN2C(=O)c3ccccc3C2=O)c1	-31	91	-0.9	i	0.97	94	7
COc1ccc(NC(=S)N2CCC(c3nc4ccccc4o3)CC2)c(OC)c1	29	88	.	i	1	94	1
Cc1nc2ncnn2c(C)c1Cc1cccc(C(F)(F)F)c1	40	92	.	i	0.97	105	-2

4 compounds drawn at random from those above:
SMILES	Insulin prom inh	Insulin prom inh cell count	GALR2 ag	HSV replic up	HSV replic up primary fold	RGS16-Gao HTS	PKD1 inh
O=C(N/N=C/c1ccccc1OC(=O)N1CCOCC1)c1cccs1	-31	65	.	i	1.1	103	-3
NC(=O)C1CC(=O)N(c2ccc(OCc3ccccc3Cl)cc2)C1 (stereo unspecified)	-55	69	.	i	0.95	101	-6
Cc1ccc(S(=O)(=O)Nc2ccncc2)c(C)c1N(C)S(=O)(=O)c1ccc(Cl)cc1	33	101	-1.2	i	0.99	109	-9
CC1(C)CC(=O)C=C(N=CC2=C(O)CC(C)(C)CC2=O)C1	20	106	-0.7	i	0.95	99	-7

Remaining list, next part:
SMILES	Insulin prom inh	Insulin prom inh cell count	GALR2 ag	HSV replic up	HSV replic up primary fold	RGS16-Gao HTS	PKD1 inh
CC(C)C(=O)Nc1cccc(C(=O)Nc2nnc(C(C)(C)C)s2)c1	-35	212	-4.2	i	0.98	84	-4
CCc1ccc(NC(=O)COC(=O)CCCC2=NS(=O)(=O)c3ccccc3N2)cc1	-50	79	.	i	1	9	5
COc1ccc(C2=NNC(c3cc(Cl)cc4c3OCOC4)C2)c(O)c1 (stereo unspecified)	.	.	.	i	0.89	101	-8
COCCn1nnnc1C(c1ccc(OC)cc1OC)N1CCN(c2ccccc2)CC1 (stereo unspecified)	.	.	-0.7	i	0.95	88	-17
COc1ccc2[nH]c(C(=O)NCc3ccccc3)cc2c1	.	.	.	i	1	100	.
COc1ccc(N=Cc2c[nH][nH]c2=O)cc1	-50	126	-1.5	i	0.9	97	0
CCCNC(=O)COC(=O)c1ccccc1C(=O)N(C)C1CCCCC1	.	.	0.1	i	1.1	102	-2
COC(=O)c1cc(NC(=O)c2cc(C)oc2C)cc(C(=O)OC)c1	38	127	0.1	i	0.84	103	-7
O=C(NCCCN1CCN(CCCNC(=O)c2cccc(Cl)c2)CC1)c1cccc(Cl)c1	-25	114	-0.9	i	0.97	105	-5
COc1cc(OC)cc(C(=O)NNC(=S)NC2CC2)c1	.	.	.	i	0.97	104	2
COc1ccc(CC(NC(C)=O)C(=O)NC2CCN(c3nc(C)cc(C)c3C#N)CC2)c(OC)c1 (stereo unspecified)	16	86	0.2	i	0.96	99	6
C=CCNC(=O)c1cc2c(=O)n3cc(C)ccc3nc2nc1NCC1CCCO1 (stereo unspecified)	.	.	0.5	i	0.94	93	-3
COc1ccccc1NC(=O)COc1ccccc1C(=O)Nc1ccccc1	.	.	.	i	0.75	94	0
O=C(O)COc1ccccc1/C=N/NC(=O)Cc1csc(Nc2cccc(C(F)(F)F)c2)n1	.	.	.	i	1	32	-2
COc1ccccc1CNC(=O)C(CCSC)NS(=O)(=O)c1ccc2c(c1)oc(=O)n2C (stereo unspecified)	-164	101	-1.2	i	1	100	-7
O=S(=O)(Nc1nc2ccccc2nc1NCC1CCCO1)c1ccc(F)cc1 (stereo unspecified)	.	.	.	i	1.2	96	.
CC(C)c1ccccc1OCC(=O)NCC(c1cccs1)N1CCOCC1 (stereo unspecified)	-40	57	-0.6	i	0.87	69	-9
Cc1cc(C)nc(SCC(=O)c2ccc3c(c2)OCCO3)n1	7	96	-0.9	i	1.1	106	-7
NC(=O)CSc1nnc(-c2cccc(S(=O)(=O)N3CCCCC3)c2)o1	.	.	.	i	1.1	106	.
CC1(C)CC(CC(=O)O)(c2ccccc2)CCO1 (stereo unspecified)	-19	84	-1.7	i	0.87	80	0
CCNC(=O)/C(C#N)=C/c1c(N2CCN(Cc3ccc4c(c3)OCO4)CC2)nc2c(C)cccn2c1=O	.	.	0.6	i	1.1	102	-3
O=C(NCc1cccnc1)c1ccc2c(c1)N(Cc1ccccc1)CCS2	.	.	.	i	0.94	103	.
CCO[C@@H]1OC(C(N)=O)=C[C@H](c2ccc(Br)cc2)[C@H]1CCCO	.	.	.	i	0.81	95	4
Fc1c(F)c(F)c(/C=N/NC(=S)Nc2cccnc2)c(F)c1F	.	.	.	i	0.7	112	1
CC1(C)CC(=O)C=C(Nc2ccccc2F)C1	-12	85	-1.5	i	0.8	107	-10

Bioassay records: PubChem, several laboratories
